NPYLR7 agonist: activates Aedes aegypti NPYLR7 receptor. activation, % at 10 µM. HEK293T NPYLR7/Galpha15, GCaMP6s calcium fluorescence. AID 1259423. 270,000 compounds, 0.15% hits; in the data active = activation above about 40%;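 note: 0% = vehicle and 100% = reference agonist at the receptor; some compounds past the cut are filed as inactive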
NPYLR7 agonist max-min: further read-out of NPYLR7 agonist, marked with its call; activation, %; measured here: Max-Min RFU normalised activation; some inactives read as strong as hits;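 span of the calcium signal over five minutes; 0% = vehicle and 100% = native peptide agonist; compound fluorescence can raise it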
Starred values were filed as active, the others as inactive; & = joins results of further samples. Only part of the results is shown, so the mix of outcomes need not match the whole.

SMILES	NPYLR7 agonist	NPYLR7 agonist max-min
CCCN1CC(NC(=O)c2cc3ccccc3s2)CC1=O (centres undefined)	16	12
CC(C)CC(=O)Nc1ccc2[nH]cc(CCN3CCN(c4cccc(C(F)(F)F)c4)CC3)c2c1	4	-7
O=C(NCCCCCCOC1=NS(=O)(=O)c2ccccc21)C(=O)Nc1ccccc1	-15	-21
COCCCNC(=O)CC#N	3	5
Cc1nnc(Sc2nc(CN3CCOCC3)nc3scc(-c4cccs4)c23)n1C	4	3
O=C(CCc1ccccc1)n1nc(-c2ccccc2)nc1NCc1ccccc1	13	10
COCCN(Cc1cccc(OS(=O)(=O)c2cccc(C(F)(F)F)c2)c1)C(=O)c1cccc([N+](=O)[O-])c1	3	6
CCOC(=O)C1CCN(C(c2ccc(SC)cc2)c2c(O)cc(C)n(CC)c2=O)CC1 (centres undefined)	8	2
Cn1nc(NC(=O)c2c[nH]c3ccccc23)c2c1NC(=O)CC2c1cccs1 (centres undefined)	-14	-22
Cc1nn(-c2ccccc2)c(COC(=O)C2CCC(=O)NC2)c1C#N (centres undefined)	4	1
CC(C)(C)c1ccc(CC(=O)N2CCC2(C)C(=O)NS(=O)(=O)c2ccc(C#N)cc2)cc1 (centres undefined)	5	5
Cc1ccc(S(=O)(=O)Nc2ccc(C3SCC(=O)N3c3ccccc3C(C)C)cc2)cc1 (centres undefined)	12	17
CC(c1nc(N)nc(Nc2ccccc2)n1)N1CCCC(c2ccnn2C)C1 (centres undefined)	12	9
C=CCn1c(=O)c2c(nc3n2CCCN3c2cccc(C)c2C)n(C)c1=O	8	4
CCCc1nnc(-c2cc3ccccc3n2CC(=O)Nc2cccc(C)c2)o1	7	3
Cc1ccccc1-c1cc(O)c2c(c1)CN(C(=O)c1ccco1)CCO2	-1	-1
Cn1c(=O)c2c(SC3CCCC3)nc(-c3ccc(F)cc3)nc2n(C)c1=O	6	7
C=CCN1N=C(C(C)(C)C)Cn2c1nc1c2c(=O)n(CC=C)c(=O)n1C	4	1
O=C(NCC1CCOC1)N1CCCC1c1nc2ccccc2s1 (centres undefined)	0	-1
Cc1nc2scc(C)n2c(=O)c1NC(=O)CCC1CCCCC1	14	4
CCN(CC)C(=O)c1cccnc1	-7	-7
COc1cccc2cc(-c3nnc(Nc4ccc(C)cc4)s3)c(=O)oc12	0	-5
CC1CN(C(=O)NCCc2ccccc2C(F)(F)F)CC(C)(C)O1 (centres undefined)	6	1
O=c1c2ccccc2nc(/C=C/c2cc(Br)ccc2O)n1CCCO	12	16
CC(C)c1ncc(Cl)c(C(=O)Nc2nn(C(C)C)cc2C#N)n1	7	5
CC(=O)c1ccc(F)cc1-c1cccc(C(C)N(C)C)c1 (centres undefined)	5	1
Cc1ccc(Nc2nnc(-c3cc4cc(Cl)cc(Cl)c4oc3=O)s2)cc1	2	0
Cc1ccc2nc(NC(=O)C3c4ccccc4Oc4ccccc43)sc2c1	-4	-8
NC(=O)c1ccnc(-c2ccccc2CN2CCOCC2)c1	3	1
CNS(=O)(=O)c1csc(C(=O)NCc2ccc(C)n2C)c1	0	11

Filtered by structure: the compounds so far with a carbonyl joined to an NH by a bond outside any ring
SMILES	NPYLR7 agonist	NPYLR7 agonist max-min
CCCN1CC(NC(=O)c2cc3ccccc3s2)CC1=O (centres undefined)	16	12
CC(C)CC(=O)Nc1ccc2[nH]cc(CCN3CCN(c4cccc(C(F)(F)F)c4)CC3)c2c1	4	-7
O=C(NCCCCCCOC1=NS(=O)(=O)c2ccccc21)C(=O)Nc1ccccc1	-15	-21
COCCCNC(=O)CC#N	3	5
Cn1nc(NC(=O)c2c[nH]c3ccccc23)c2c1NC(=O)CC2c1cccs1 (centres undefined)	-14	-22
CC(C)(C)c1ccc(CC(=O)N2CCC2(C)C(=O)NS(=O)(=O)c2ccc(C#N)cc2)cc1 (centres undefined)	5	5
CCCc1nnc(-c2cc3ccccc3n2CC(=O)Nc2cccc(C)c2)o1	7	3
O=C(NCC1CCOC1)N1CCCC1c1nc2ccccc2s1 (centres undefined)	0	-1
Cc1nc2scc(C)n2c(=O)c1NC(=O)CCC1CCCCC1	14	4
CC1CN(C(=O)NCCc2ccccc2C(F)(F)F)CC(C)(C)O1 (centres undefined)	6	1
CC(C)c1ncc(Cl)c(C(=O)Nc2nn(C(C)C)cc2C#N)n1	7	5
Cc1ccc2nc(NC(=O)C3c4ccccc4Oc4ccccc43)sc2c1	-4	-8
NC(=O)c1ccnc(-c2ccccc2CN2CCOCC2)c1	3	1
CNS(=O)(=O)c1csc(C(=O)NCc2ccc(C)n2C)c1	0	11

Additional results follow.
SMILES	NPYLR7 agonist	NPYLR7 agonist max-min
CC(C)c1nnc(CN2CCOC(CC3CCCCC3)C2)o1 (centres undefined)	2	-7
COc1cccc(CCNC(=O)c2cccnc2Nc2cccc(C)c2C)c1	-4	-15
CC1(C)O[C@@H]2C[C@@](OCc3ccccc3)(C(=O)NCC3CCCO3)CC(OCc3cccc(C(F)(F)F)c3)[C@@H]2O1 (some centres undefined)	5	6
O=C(/C=C/c1cc(F)ccc1F)NCC1Cc2cc(-c3cccnc3)cc(F)c2O1 (centres undefined)	13	1
Cc1nccc(N2CCCN(Cc3ccc(F)cc3)C(C(C)C)C2)n1 (centres undefined)	5	3
CC(Oc1cccc(Cl)c1)C(=O)NNC(=O)c1ccccn1 (centres undefined)	3	3
CC(O)CNc1nc2ccccc2n1CC(=O)NCC(F)(F)F (centres undefined)	4	2
CCCCc1ccc(-n2nnc(C(=O)Nc3nccs3)c2C)cc1	-3	-7
CC1CCc2c(sc(NC(=O)C(C)(C)C)c2C(=O)Nc2cccc3ccccc23)C1 (centres undefined)	2	7
CC(C)NC(=S)NNc1nc2c(-c3ccccc3)nnn2c2ccccc12	-10	-17
CCCn1c(=NC(=O)c2ccc(Cl)s2)sc2cc(S(C)(=O)=O)ccc21	-2	-2
O=C(Cc1cc(-c2ccco2)on1)Nc1cccnc1	2	5
COc1ccc(OC)c(NC(=O)C2(C)CCN2C(=O)Cc2ccccc2Cl)c1 (centres undefined)	-3	-3
O=C(Nc1ccc(NC2CCOCC2)cc1)Nc1cccc(F)c1	6	2
CC1(C(=O)NS(=O)(=O)c2ccc(Br)cc2)CCN1C(=O)C1CCCCC1 (centres undefined)	3	2
CCN(Cc1ccncc1)C1CCCN(C(=O)c2cc3cc(F)ccc3[nH]2)C1 (centres undefined)	12	10
CCNC(=O)c1cnn(-c2ccc(F)cc2)c1-c1ccccc1	2	12
COCC(=O)N1CCC2(CC1)NC(=O)c1cc(Br)ccc1N2	5	6
Cc1cc(Cl)ccc1C(=O)C1CCCN(C(=O)c2ccc3c(c2)OCO3)C1 (centres undefined)	-7	-9
CCOc1nc(-c2cccc(C(F)(F)F)c2)n(-c2cccc(NS(=O)(=O)c3ccc(Cl)cc3)c2)n1	3	13
Cc1cc(C)nc(NN=Cc2c(F)c(F)c(F)c(F)c2F)n1	1	-1
COc1cccc(COC(=O)c2ccc(NC(C)=O)cc2)c1OC	5	6
CC(CN1CCOCC1)NC(=O)CCN1CCSC1=O (centres undefined)	3	1
O=C(NCCn1ccnc1)c1cn(CC2CCCNC2)nn1 (centres undefined)	-7	-14
Cn1cnnc1SCc1cc2c(cc1Br)OCO2	-1	-2
N=c1ccn2c(n1)O[C@@H]1C2O[C@H](CO)[C@H]1O (some centres undefined)	-14	-18
COCCN(CC(=O)N1CCc2sccc2C1c1ccccc1C)S(=O)(=O)/C=C/c1ccccc1 (centres undefined)	9	11
COc1cc2c(cc1CNC(=O)c1cnn3c1CCCC3)OCCO2	0	-2
CCc1ncc(NC(=O)CC(C)c2ccccc2C)cn1 (centres undefined)	-23&0	-24&2
Cc1ccc(-c2cc(NCCO)ncn2)c2cccnc12	12	8
CC(=O)Nc1ccc(SCC(=O)NC(C)CCc2ccco2)cc1 (centres undefined)	-2	-2
CN(CCCc1ccccc1)Cc1nc(C2CC2)no1	-1	-4
CC(=O)Nc1cnc(-c2cccc(O)c2)cn1	3	0
Cc1cccc(N2CCC(NCCN(C)S(C)(=O)=O)CC2)c1C	9	9
COc1ccc(OCCSc2nc3ccccc3n2CC(=O)O)cc1	17	7
O=C(CCn1nc(-c2ccc(F)cc2)oc1=O)Nc1ccnn1C1CCCC1	8	3
CCN(CC)C(=S)SC(C)c1nc(N)nc(N(C)C)n1 (centres undefined)	-6	1
COc1ccc(-c2ccccc2-n2ccnc2-c2cnc[nH]2)cc1	-4	-8
Cc1nc(Nc2ccc(NC(=O)c3ccccc3F)cc2)cc(-n2cccn2)n1	3	-2
CCOC(=O)C1=C(C)NC(C)=C(C(=O)OC(C)C)C1c1ccc([N+](=O)[O-])cc1 (centres undefined)	-14	-20
O=C(c1cccs1)N1CCSC12C(=O)N(Cc1c(F)cccc1F)c1ccccc12 (centres undefined)	1	2
COc1ccc(CCN(C)c2cc(C(C)(C)C)nc(SCc3ccc(C(=O)NC4CC4)o3)n2)cc1OC	8	10
COc1ccc(C(=O)N2C[C@]3(C)C[C@H]2CC(C)(C)C3)cc1OC1CCN(C(C)C)CC1	14&-5	15&-7
FC(F)(F)c1cc(-n2c(-c3snnc3-c3ccccc3)n[nH]c2=S)cc(C(F)(F)F)c1	8	-4
c1cncc(-c2nccn2CCCCN2CCCCCC2)c1	-1	-4
N#CCCCS(=O)(=O)Nc1ccccc1OCC1CC1	-6	-7
Cc1ccc(N2CCC(Nc3ccc4c(c3)oc(=O)n4C)C2=O)cc1 (centres undefined)	5	4
CCc1nc(CN(C)CC2CCN(Cc3ccc(C)o3)CC2)c(C)[nH]1	18	6
CCCc1nnc2sc(CCN3C(=O)c4ccccc4C3=O)nn12	2	-1
C#CCNc1ccc(C)c(S(=O)(=O)N(CC)CC)c1	11	11

Given with two lines to a compound: entries from further up
Screens in order: NPYLR7 agonist, NPYLR7 agonist max-min
> COCCN(CC(=O)N1CCc2sccc2C1c1ccccc1C)S(=O)(=O)/C=C/c1ccccc1 (centres undefined)
→ 9, 11
> Cc1cc(Cl)ccc1C(=O)C1CCCN(C(=O)c2ccc3c(c2)OCO3)C1 (centres undefined)
→ -7, -9
> Cc1ccccc1-c1cc(O)c2c(c1)CN(C(=O)c1ccco1)CCO2
→ -1, -1

(more compounds)
SMILES	NPYLR7 agonist	NPYLR7 agonist max-min
Cc1c(Cl)c([N+](=O)[O-])nn1CC(=O)N(C)C1CCCCC1	11	11
CC(=O)NC(CC(=O)N1c2ccccc2C[C@H]1C(N)=O)c1ccc(Cl)cc1 (some centres undefined)	2	0
CC1CCCC2(C1)OCC(C(=O)N1CCCC1)N2C(=O)c1ccccc1F (centres undefined)	0	2
Cc1ccc(/C(C#N)=C\c2cc(C)n(C)c2C)cc1	7	4
CC(C)n1c(N2CCCC2)nc2c1c(=O)[nH]c(=O)n2C	7	2
Cc1ccc(NC(=O)N2CCCC(OCc3cccnc3)C2)cc1 (centres undefined)	12	13
CCCCN(Cc1cccn1Cc1cccc(C)c1)C(=O)CN(CCC(C)C)C(=O)CCc1ccccc1	-3	4
Nc1nc2nc(-c3ccc(Br)cc3)cc(C(F)(F)F)n2n1	9	4
COC(=O)CCN1C(=O)/C(=C/c2ccc(OCc3ccc(Cl)cc3)c(OC)c2)SC1=S	-4	-6
CC(C)CC(=O)N(CCN1CCOCC1)Cc1nccn1Cc1ccccc1Cl	4	5
CCCC1(C)SC(NC(C)=O)=NN1C(C)=O (centres undefined)	17	15
COc1ccccc1OCC1CN(C(=O)c2ccc3c(c2)CCO3)CCO1 (centres undefined)	0	2
COc1cc(S(=O)(=O)N2CCOCC2)ccc1Cl	8	2
CN(C)P(=Nc1ccc([N+](=O)[O-])cc1)(N(C)C)C(C)(C)C	-1	-2
CN(C)CCNC(=O)[C@@]1(OCc2cccc(Cl)c2)CC(OCc2ccc(C(F)(F)F)cc2)[C@@H]2OC(C)(C)O[C@@H]2C1 (some centres undefined)	3	0
CC1NCCN(c2ccccc2-c2ccccc2)C1=O (centres undefined)	-4	-3
Nc1nc(=S)nc(-c2ccccc2)[nH]1	7	10
COc1ccc2c(=O)c3c(=O)n(Cc4ccccc4)c(C(C)C)nc3oc2c1	4	0
O=C(/C=C/c1c(Cl)cccc1Cl)NN1CCOCC1	-2	-2
CC(C)(C)c1ccc(C(=O)NCC(=O)N=Nc2c(O)n(Cc3ccc4c(c3)OCO4)c3ccccc23)cc1	-1	-3
Cc1cnn(CCC(=O)N2C(C)CN(C(=O)OC(C)(C)C)CC2C)c1 (centres undefined)	16	11
CCC(C)N1CCN(S(=O)(=O)CC)CC1 (centres undefined)	1	8
COC(=O)C1CCN(C(=O)Cc2cc(-c3ccc(OC)cc3)on2)CC1	8	8
CC(=O)NCc1ccc(-c2csc(NC(=O)NC3CCCCC3)n2)o1	2	0
CSc1cccc2cccnc12	-1	5
O=c1oc2ccccc2n1CN1CCCC2CCCCC21 (centres undefined)	11	5
COc1ccc(-n2c(-c3ccccc3)cc(C(=O)NCc3ccc4c(c3)OCO4)c2C)c(OC)c1	8	15
CSc1ccc(C2NC(C(=O)O)CS2)cc1 (centres undefined)	2	0
CCOc1ccc(C2c3[nH]c4ccccc4c3CCN2C(=O)C2=CCCCC2)cc1 (centres undefined)	3&-2	0&-1
O=C(NN=C1c2ccccc2-c2ccccc21)C1COc2ccccc2O1 (centres undefined)	-1	15
O=C1OC2(O)c3ccccc3C(=O)N2c2ccccc21 (centres undefined)	1	-1
N#Cc1ccc(Sc2ncnc3[nH]ncc23)c(F)c1	-2	-4
COC(=O)CCNC(=O)C1CCN(S(=O)(=O)c2ccc3c(c2)CCCC3)CC1	10	10
COCc1ccc(CN2CCCC(CNC(=O)c3cccc4ccccc34)C2)o1 (centres undefined)	5&12	1&4
CCc1ccc(C(NCC(=O)NC(=O)NC)C(C)C)cc1 (centres undefined)	-5	-4
CCCNC(=O)Cn1c(=O)c(N2CC3(C)CC2CC(C)(C)C3)nc2ccccc21 (centres undefined)	-2	-3
CSCCC1NC(=S)N(c2ccc(OCc3ccccc3)cc2)C1=O (centres undefined)	3	1
C=C(C)CSc1nc2c(c(=O)n(C)c(=O)n2C)n1Cc1ccccc1	17	9

Compound profiles, from the list above. Order of values: NPYLR7 agonist, NPYLR7 agonist max-min
COc1ccc2c(=O)c3c(=O)n(Cc4ccccc4)c(C(C)C)nc3oc2c1 across the screens: 4, 0
O=C(NCCCCCCOC1=NS(=O)(=O)c2ccccc21)C(=O)Nc1ccccc1 across the screens: -15, -21

Screens as filed in PubChem BioAssay.
